Assay outcomes: PubChem BioAssay, National Center for Advancing Translational Sciences (NCATS)
ELG1 genotox = induces genotoxicity in HEK293T cells with luciferase-tagged ELG1; HEK293T ELG1-luciferase reporter, luminescence, 16 h; Potency, µM (highest dose often 46 µM), without a hit: top-dose activity change, positive = activation, most hits filed as activators; 330,000 compounds, 1.3% hits; further: % of control where 0% means no effect; nearly all actives have a fitted effect of over 60% in size
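DMSO vehicle served as control against compound-treated ELG1-luciferase HEK293T cells; exposure lasted 16 hr at 37 °C and 5% CO2, followed by ONE-Glo luminescence detection after 30 min.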
NPC1 prom act = activators of NPC1 promoter; Huh7 NPC1 promoter luciferase reporter, 24 h; Potency, µM (series often up to 9.22 µM), for the others: at the top dose activation, most hits filed as activators; 320,000 compounds, 2.4% hits; AID 485313;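 further: % of control where 0% means no effect; nearly all actives have a fitted effect of over 60% in size; reporter is driven by a mutant NPC1 promoter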
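NPC1 promoter–luciferase Huh7 cells; 24 h compound; luminescence.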
FLuc modulator = firefly luciferase modulation, counter-screen for miR-21 project; P08659; purified FLuc, Km substrates, luminescence inhibition; Potency, µM (top dose mostly 57.5 µM), inactives show top-dose activity change, negative = inhibition, most hits filed as inhibitors; 360,000 compounds, 6.9% hits; AID 588342;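 further: plate controls were vehicle for no effect and reference inhibitor for full effect; nearly all actives have a fitted effect of over 55% in size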
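Purified P. pyralis luciferase, 10 nM final, with Km-level 10 uM D-luciferin and 10 uM ATP in 50 mM Tris acetate pH 7.5, 10 mM Mg acetate, 0.01% Tween-20, 0.05% BSA; 6-point qHTS titration about 60 µM downward; luminescence read.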
Gal4-VP16 FLuc = Gal4-VP16 reporter inhibition counter-screen | Drosophila S2 Gal4-VP16 UAS-luciferase, luminescence, 20 h | Potency, µM (doses to about 53.6 µM), for the others: at the top dose activity, negative = inhibition, hits mostly inhibitors | 310,000 compounds, 3.5% hits | AID 2546;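 further: Gal4-VP16 expression switched on by copper sulfate through the metallothionein promoter; on the % scale 0 is the no-effect control and ±100 the full control effect; nearly all actives have a fitted effect of over 50% in size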
Rab9 prom act = activates the Rab9 promoter; 320,000 compounds, 2.8% hits; Huh7 Rab9 promoter-luciferase reporter, luminescence, 24 h; Potency, µM (top dose mostly 9.22 µM), for the others: at the highest dose activation, negative = inhibition, actives largely listed as activators; further: % of control where 0% means no effect; nearly all actives have a fitted effect of over 60% in size
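Rab9 promoter-driven luciferase in stably transfected Huh7 cells; 1500 cells/well rested 2 h, exposed to compound in DMSO for 24 h at 37 °C, 5% CO2. Luminescence read 10 min after adding luciferase reagent at ambient temperature.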
uPA generation = cell surface uPA generation inhibition; cell surface uPA generation assay, qHTS; Potency, µM (top dose mostly 38.3 µM), for the others: top-dose activity change, negative = inhibition, hits mostly inhibitors; 330,000 compounds, 0.31% hits; active means well fitted inhibition curve with a large enough effect; inconclusive means small, poorly fitted or top-dose-only effect; inactive means no such curve, though single readings can be large or run the other way; tested in mouse RAW 264.7 cells; further: on the % scale 0 is the no-effect control and ±100 the full control effect; nearly all actives have a fitted effect of over 55% in size
BRCA1 expr up = BRCA1 expression activation; Potency, µM (series often up to 46.1 µM), for the others: at the top dose activation, usual class: activators; AID 624202; 380,000 compounds, 1.1% hits; MCF7-BRCA1-FFLuc reporter, luminescence, 48 h; response scale: scaled: vehicle 0%, 10 µM genistein 100%; further: nearly all actives have a fitted effect of over 80% in size; some results filed as inactive show a strong effect at the top dose
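Reporter cells (MCF7, BRCA1 promoter-firefly luciferase) received library compounds across a concentration series for 48 h. End-point luminescence was measured and concentration-effect curves derived after normalization.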
MBNL1-CUG inh = inhibitors of human MBNL1 binding to CUG repeat RNA | Q9NR56 | TR-FRET MBNL1-His/biotin-(CUG)12 binding, 665/545 ratio | Potency, µM (doses to about 57.5 µM), inactives show top-dose activity change, negative = inhibition, actives largely listed as inhibitors | 280,000 compounds, 0.036% hits | AID 2675; active means well fitted inhibition curve with a large enough effect in the signal ratio, with a control signal flat, not every such curve was filed as active; inconclusive means small, poorly fitted or top-dose-only effect, or effect the other way, or a change in a side signal; inactive means no such curve, though single readings can be large or run the other way; the % refers to the signal ratio; further: on the % scale 0 is the no-effect control and ±100 the full control effect
Target sequence (Q9NR56 whole entry, looked up): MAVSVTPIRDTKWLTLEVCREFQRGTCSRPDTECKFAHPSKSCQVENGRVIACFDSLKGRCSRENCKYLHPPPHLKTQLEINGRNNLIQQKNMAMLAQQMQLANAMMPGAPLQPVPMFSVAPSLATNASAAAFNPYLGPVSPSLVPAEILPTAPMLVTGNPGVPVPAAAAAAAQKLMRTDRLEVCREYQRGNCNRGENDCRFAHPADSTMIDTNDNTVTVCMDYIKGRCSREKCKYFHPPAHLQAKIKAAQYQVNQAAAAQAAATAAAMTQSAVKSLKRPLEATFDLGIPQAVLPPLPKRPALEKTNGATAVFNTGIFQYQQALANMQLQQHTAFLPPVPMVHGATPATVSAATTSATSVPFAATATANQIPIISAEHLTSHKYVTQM
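TR-FRET readout: Ex 340 nm, 665/545 nm emission ratio, normalized to buffer-only (basal) and MBNL1-(CUG)12 controls. Complex of MBNL1-His with Biotin-(CUG)12, compounds 92 nM–58 uM, incubated 60 min at room temperature.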
CXXC DNA block = blocks binding of human MLL CXXC domain to DNA; 290,000 compounds, 0.037% hits; Potency, µM (top dose mostly 115 µM), without a hit: top-dose activity change, negative = inhibition, hits mostly inhibitors; MLL-CXXC / FITC-HOXA9 DNA fluorescence polarization; AID 2662; Q03164; active means well fitted inhibition curve with a large enough effect in the polarisation, with a control signal flat, not every such curve was filed as active; inconclusive means small, poorly fitted or top-dose-only effect, or effect the other way, or a change in a side signal; inactive means no such curve, though single readings can be large or run the other way; the % refers to the polarisation
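Steps: dispense CXXC domain solution (7 uM) → pin compounds or unlabeled HOX-A9 DNA control → 5 min ambient → add FLSN-HOX-A9 solution (50 nM) → spin → 30 min ambient → fluorescence polarization. Tris pH 7.5/NaCl/DTT/BSA buffer.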
p53 reactivation = re-activators of mutant p53; H1299 p53-A138V BP100-luciferase reporter, luminescence, 24 h; Potency, µM (top dose mostly 92.2 µM), without a hit: at the top dose activity change, positive = activation, actives largely listed as activators; 320,000 compounds, 0.063% hits; AID 504706; further: % of control where 0% means no effect; nearly all actives have a fitted effect of over 45% in size
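H1299 (p53-null), stable ts p53-A138V + BP100-Luc; 1000 cells/well, Opti-MEM/10% FBS; cpd 4 pt, 1:5; 24 h, 37 deg C, 5% CO2; detection reagent 10 min RT; luminescence.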
The depositor's hits bear a star; ? = inconclusive; / = not tested or not shown; [ ] = dose if it differs, or a comment. Unless noted, the call rests on the fitted dose curve; in most records, active means well fitted curve in the direction sought with a large enough effect; inconclusive means small, poorly fitted or top-dose-only effect, or another doubt; inactive means no such curve, though single readings can be large; an effect the other way counts as inactive or inconclusive. Potency means the concentration at half of the fitted maximal effect. These rows are one share of the data; the hit share may differ from the screen's.

SMILES,BRCA1 expr up,Gal4-VP16 FLuc,Rab9 prom act,uPA generation,ELG1 genotox,CXXC DNA block,MBNL1-CUG inh,NPC1 prom act,FLuc modulator,p53 reactivation
Cc1ccc2[nH]cc(/C=C/c3cc[n+](C)cc3)c2c1,-62%,-22%,-48%[inhibitor],-8%,-13%,4%,?,-46%[inhibitor],-1%,1%
COc1ccc(CN(CCc2ccccc2)Cc2ccccc2)cc1OC,-7%,-9%,2%,11%,-5%,-3%,-1%,-1%,0%,/
CCNC(=S)N1CCC(c2nc3cc(C)c(C)cc3[nH]2)CC1,1%,-12%,-1%,-6%,3%,-7%,3%,0%,?,11%
COc1ccc(OCC(O)CNCCOc2ccccc2OC)c(C(C)(C)C)c1 (stereo not given),-82%,-29%,-10%,3%,-11%,16%,1%,-6%,0%,2%
COc1ccc(Br)cc1CN(C)CC(=O)NCc1ccc(F)cc1,-27%,2%,0%,13%,-8%,8%,-2%,-4%,1%,-5%
CC[n+]1cccc(-c2nc3ccccc3s2)c1,-32%,-29%,-1%,-19%,4%,-8%,?,1%,27µM*,2%

Reformatted with values under each structure: part of the list above
Results follow in this order: BRCA1 expr up	Gal4-VP16 FLuc	Rab9 prom act	uPA generation	ELG1 genotox	CXXC DNA block	MBNL1-CUG inh	NPC1 prom act	FLuc modulator	p53 reactivation
Cc1ccc2[nH]cc(/C=C/c3cc[n+](C)cc3)c2c1
 : -62%	-22%	-48%[inhibitor]	-8%	-13%	4%	?	-46%[inhibitor]	-1%	1%
COc1ccc(CN(CCc2ccccc2)Cc2ccccc2)cc1OC
 : -7%	-9%	2%	11%	-5%	-3%	-1%	-1%	0%	/
CCNC(=S)N1CCC(c2nc3cc(C)c(C)cc3[nH]2)CC1
 : 1%	-12%	-1%	-6%	3%	-7%	3%	0%	?	11%
COc1ccc(OCC(O)CNCCOc2ccccc2OC)c(C(C)(C)C)c1 (stereo not given)
 : -82%	-29%	-10%	3%	-11%	16%	1%	-6%	0%	2%
COc1ccc(Br)cc1CN(C)CC(=O)NCc1ccc(F)cc1
 : -27%	2%	0%	13%	-8%	8%	-2%	-4%	1%	-5%
CC[n+]1cccc(-c2nc3ccccc3s2)c1
 : -32%	-29%	-1%	-19%	4%	-8%	?	1%	27µM*	2%
